# TRPML1 blocker: qHTS for Inhibitors of the Human Mucolipin Transient Receptor Potential 1 (TRPML1). Mucolipin-1 (Homo sapiens), Q9GZU1. TRPML1-inducible cells, Ca2+ dye fluorescence, FDSS; active compounds read low; inhibition of EC80 agonist-evoked calcium signal. activity change, negative = inhibition, % (concentration not given with the values). 0.02% of 390,000 active. AID 624415, 2012; in the data active means activity change below about -50%; inconclusive means about -30% to -50%; inactive means above about -30%;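 also: stimulus is agonist 54-4 at its EC80 concentration; % is scaled to controls: 0 for no effect and ±100 for the full control effect; the text of the record puts the active cut at -80%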
# Target sequence (Q9GZU1 whole entry, looked up): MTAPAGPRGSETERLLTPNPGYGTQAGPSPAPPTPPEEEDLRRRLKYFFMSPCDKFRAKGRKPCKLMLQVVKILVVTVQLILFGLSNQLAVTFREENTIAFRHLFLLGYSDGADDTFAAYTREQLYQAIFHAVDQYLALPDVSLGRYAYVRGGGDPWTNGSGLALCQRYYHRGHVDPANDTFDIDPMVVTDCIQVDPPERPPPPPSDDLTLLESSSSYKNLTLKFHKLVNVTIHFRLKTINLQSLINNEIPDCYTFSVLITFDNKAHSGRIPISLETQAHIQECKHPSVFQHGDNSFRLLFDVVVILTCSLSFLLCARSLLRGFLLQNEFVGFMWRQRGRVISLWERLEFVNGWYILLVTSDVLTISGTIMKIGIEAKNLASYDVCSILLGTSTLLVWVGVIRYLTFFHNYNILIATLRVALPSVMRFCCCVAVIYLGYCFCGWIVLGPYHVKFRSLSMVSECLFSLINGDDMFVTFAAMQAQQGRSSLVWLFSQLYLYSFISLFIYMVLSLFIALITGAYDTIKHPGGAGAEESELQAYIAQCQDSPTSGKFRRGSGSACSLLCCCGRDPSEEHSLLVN
#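 Tet-induced TRPML1-DL cells loaded with Ca8 no-wash calcium dye were read kinetically on FDSS. Compound addition was followed by EC80 agonist 54-4 (4 uM final); inhibition was read over 110 s.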
# ClpP mod: qHTS Assay for Activators of ClpP. purified B. subtilis ClpP, FRET peptide cleavage, 20 min. Potency, µM (doses to about 57.5 µM), for the others: at the highest dose activity change, negative = active. 1.9% of 340,000 active. AID 651965, 2013; active = well fitted falling curve with a large enough effect; inconclusive = small, poorly fitted or top-dose-only effect; inactive = no such curve, though single readings can be large or run the other way; also: potency is read from the fitted curve at half-maximal effect; the source files actives as falling curves though it sought activators and does not explain the sign; nearly all actives have a fitted effect of over 65% in size; many hits overshoot -100%
# Target sequence (P80244 whole entry, looked up): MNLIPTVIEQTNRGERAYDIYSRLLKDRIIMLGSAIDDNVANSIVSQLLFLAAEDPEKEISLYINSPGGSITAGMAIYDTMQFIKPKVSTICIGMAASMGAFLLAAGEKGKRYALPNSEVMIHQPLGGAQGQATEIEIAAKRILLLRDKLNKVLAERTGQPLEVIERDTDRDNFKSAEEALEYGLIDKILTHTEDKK
#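 FRET quenching reversal measured ClpP activation: 10 microg/mL B. subtilis ClpP at pH 8 with the FRET-FV decapeptide, read at 430 nm after 320 nm excitation. The 20-min minus 0-min signal was scaled between DMSO/no-enzyme wells and ADEP (5.8 microM final).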
# Menin MLL FP FL: qHTS Assay for Inhibitors Targeting the Menin-MLL Interaction in MLL Related Leukemias: Competition With Fluorescein Labeled MLL-derived Peptide; Fluorescence polarization, fluorescein-MLL peptide displacement from menin; FP activity change, % at 61.4 µM; 290,000 tested, under 10 active; inconclusive = falling polarisation curve, or a change in total fluorescence; inactive = total fluorescence flat and polarisation flat or rising; no compound was filed as active; the % refers to the polarisation; negative = inhibition;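 also: % of control where 0% means no effect; inhibitors lower the polarisation; unlabelled MLL peptide was the positive control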
# TRPML1 ag: qHTS for Agonists of the Human Mucolipin Transient Receptor Potential 1 (TRPML1); TRPML1-expressing cells, Ca2+ dye fluorescence, FDSS; host cell line not named in the record; reference of the full effect not given here; activation, % (concentration not given with the values); 0.12% of 410,000 active; in the data active = activation above about 50%; inconclusive = about 30% to 50%; inactive = below about 30%; also: 0% is about no effect; the text of the record puts the active cut at 80%
#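 Cells: TRPML1-DL, 1X Tet inducer, ~16 h at 37 degrees C/5% CO2. Dye: ABD Ca8 no-wash + quencher, 45-90 min RT. Read: 10 s baseline, compound add, 110 s agonist phase; 54-4 EC80 (4uM final), 110 s antagonist phase.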
# gsp antagonist: qHTS for Antagonists of gsp, the Etiologic Mutation Responsible for Fibrous Dysplasia/McCune-Albright Syndrome: qHTS. gsp-mutant cells, cAMP HTRF, 30 min; control for the full effect not named in the record. Potency, µM (series often up to 76.9 µM), without a hit: at the highest dose activity change, negative = inhibition, usual class: inhibitors. 0.4% of 340,000 active. AID 624288, 2012; active = falling curve of any shape with a large fitted effect; inconclusive = falling curve, mostly with a smaller effect; inactive = flat or rising curve; cell line not stated here;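 also: intracellular cAMP measured with PDE inhibitor Ro 20-1724 present during compound exposure; potency is read from the fitted curve at half-maximal effect; % is scaled to controls: 0 for no effect and ±100 for the full control effect; nearly all actives have a fitted effect of over 65% in size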
#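 HTRF cAMP read-out (cAMP-d2 plus anti-cAMP antibody-K in lysis buffer, 30 min RT). Before lysis, cells are exposed to compounds with […] for 30 min at 37C in DPBS containing Ca/Mg, BSA and Tween 20.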
# gsp ag: qHTS for Agonist of gsp, the Etiologic Mutation Responsible for Fibrous Dysplasia/McCune-Albright Syndrome: qHTS; 0.13% of 340,000 active; gsp mutant cells, cAMP HTRF, 30 min; control for the full effect not named in the record; AID 624287, 2012; Potency, µM (series often up to 76.9 µM), for the others: at the highest dose activation (cAMP increase), actives largely listed as activators; active = well fitted activation curve with a large enough effect; inconclusive = small, poorly fitted or top-dose-only effect, or another doubt; inactive = no such curve, though single readings can be large or run the other way; cell line not stated here;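 also: phosphodiesterase inhibitor Ro 20-1724 added with compounds to block cAMP breakdown; potency is read from the fitted curve at half-maximal effect; nearly all actives have a fitted effect of over 60% in size; about a fifth of the inactives were tested at one dose only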
#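 Cells stably selected in G418 were plated at 2000/well, grown 16-24 hr, then given compounds in DMSO with the PDE inhibitor […] (300 uM solution added) for 30 min at 37C; cAMP was read by HTRF.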
# Active calls of the source: *; ? = inconclusive; . = no result given; & = joins results of further samples; [ ] = remark or other dose.
SMILES,TRPML1 blocker,ClpP mod,Menin MLL FP FL,TRPML1 ag,gsp antagonist,gsp ag
O=C(NCC1CCCCN1)c1cc(OCC(F)(F)F)ccc1OCC(F)(F)F (centres undefined),8,-27%,5.6&0.5&1.4,-0.1,1%,.
CC(C)(C)C(=O)Nc1ccccc1C(=O)Nc1ccccn1,6,0.2%,2.1,-0.7,11%,-1%
Cc1ccc(C(=O)Oc2cc(C)n(C)c(=O)c2)cc1,-8,?,1.1,-0.3,-15%,-1%
Cc1ccc(Cn2c(CO)cnc2SCc2cccc(F)c2)cc1,-12,0.8%,.,-1.2,.,.
CS(=O)(=O)Nc1ccccc1C(=O)OCc1cc(=O)n2nc(C3CCCCC3)sc2n1,-21,-27%,.,1.4,.,.
COc1ccc(S(=O)(=O)N2CCN(CC(=O)N3CCNC3=O)CC2)cc1OC,7,-0.3%,.,-0.2,.,-62%[inhibitor]
COc1ccc(-c2csc(NC(=O)CSc3n[nH]c(C)n3)n2)cc1,-15,.,1.6,1.3,35µM*,6%
N#CCCn1[nH]c(-c2ccccc2)cc1=O,-18,-5.7%,6.3,0.4,12%,-3%
COc1ccc2c(CC(=O)Nc3nccs3)coc2c1,-1,-15%,-1.7,0.5,5%,-11%[15.4 µM]
CC1(C(=O)NS(=O)(=O)c2ccccc2Cl)CCN1C(=O)CC1CCCC1 (centres undefined),7,0.4%,.,-0.4,.,.
Cc1cc(C)cc(NC(=O)Nc2cccnc2)c1,16,0.2%,-7.1,1.0,9%,12%
CCOC(=O)CSc1nc(C(C)C)nc2sc(C)c(C)c12,17,.,-2.9,2.4,-10%,7%[15.4 µM]
Cc1nonc1CC(=O)N1CCCC(C(=O)c2ccc(Cl)cc2)C1 (centres undefined),-25,-0.2%,-0.2,0.4,-1%,7%
CC(CCC(C)OC(=O)c1ccccc1C(=O)O)OC(=O)c1ccccc1C(=O)O (centres undefined),-15,0.9%,-5.4,-1.3,-7%,19%[15.4 µM]
COc1cc(NC(=O)c2ccc3c(c2)OCCO3)ccc1NC(=O)c1cccs1,15,.,-2.7,-0.8,-51%,18%[15.4 µM]
Cc1ccc(C)c(S(=O)(=O)N2CCN(C(=O)CCC(=O)NCc3ccc(Cl)cc3)CC2)c1,-11,-4.0%,.,0.1,-10%,-36%[inhibitor]
CC1CC1C(=O)N(CCC1=CCCCC1)c1c(N)n(Cc2ccccc2)c(=O)[nH]c1=O (centres undefined),-12,-2.7%,.,-1.1,-5%,?
O=C(CNC(=O)c1ccc2c(c1)OCO2)NCc1cccs1,22,.,.,0.9,11%,1%
COc1ccccc1CNC(=O)C(Cc1ccccc1)NC(=O)c1ccccc1 (centres undefined),1,-1.5%,.,1.8,-12%,-24%
O=S(=O)(/C=C/c1ccccc1)N1CCN(Cc2ccc3c(c2)OCO3)CC1,38,-1.7%,0.8,2.7,9%,4%
NS(=O)(=O)c1cccc(NC(=O)c2cc3ccccc3o2)c1,11,.,-4.3,3.8,-5%,11%[15.4 µM]
COCCSc1nnc(NC(=O)Cc2ccc(OC)c(OC)c2)s1,0,-3.3%,-5.7,-0.2,-5%,7%
Cc1ccc(S(=O)(=O)CCc2nc3ccccc3s2)cc1C,-6,?,0.9,-1.0,-19%,-22%
O=C(CNC(=O)c1cccc(Br)c1)N/N=C/c1cccs1,-6,-2.4%,-1.8,-0.1,1%,1%
COc1cc(C(=O)OCC(=O)Nc2cccc(S(=O)(=O)N3CCOCC3)c2)ccc1OCC(C)C,-6,-1.1%,.,0.1,-9%,-32%[inhibitor]
Cc1ccc(S(=O)(=O)N2[C@@H](c3cccc(Cl)c3)C(C(=O)O)=CC[C@H]2c2cccs2)cc1,-12,-2.6%,.,-0.2,-4%,-32%[inhibitor]
C[C@@H]1CN([C@@H](C)CO)S(=O)(=O)c2ccc(C#CC3CCCCC3)cc2O[C@@H]1CN(C)Cc1cccnc1,41,-1.1%,.,0.4,.,12%
Cc1ccc(S(=O)(=O)/C(=C/Cl)NC(=O)c2ccccc2)cc1,-19,-2.3%,-0.1,1.1,-1%,-3%
CCOc1ccc(C2C(C(=O)Nc3ccccc3)=C(C)Nc3nc(SCc4cccc(OC)c4)nn32)cc1 (centres undefined),14,-1.8%,.,0.6,.,.
CN(C)C(=O)COC(=O)/C=C/c1cn(-c2ccccc2)nc1-c1cccs1,6,.,4.0,0.2,-19%,-9%[15.4 µM]

# Fetched by structure from the entries so far:
SMILES,TRPML1 blocker,ClpP mod,Menin MLL FP FL,TRPML1 ag,gsp antagonist,gsp ag
CCOc1ccc(C2C(C(=O)Nc3ccccc3)=C(C)Nc3nc(SCc4cccc(OC)c4)nn32)cc1 (centres undefined),14,-1.8%,.,0.6,.,.
Cc1ccc(C)c(S(=O)(=O)N2CCN(C(=O)CCC(=O)NCc3ccc(Cl)cc3)CC2)c1,-11,-4.0%,.,0.1,-10%,-36%[inhibitor]
COc1ccccc1CNC(=O)C(Cc1ccccc1)NC(=O)c1ccccc1 (centres undefined),1,-1.5%,.,1.8,-12%,-24%
Cc1ccc(S(=O)(=O)/C(=C/Cl)NC(=O)c2ccccc2)cc1,-19,-2.3%,-0.1,1.1,-1%,-3%

# The results go on:
SMILES,TRPML1 blocker,ClpP mod,Menin MLL FP FL,TRPML1 ag,gsp antagonist,gsp ag
Cc1cc(Cl)ccc1OCC(=O)NCCOc1nc(N2CCCCC2)nc(N2CCOCC2)n1,5,0.9%,0.0,-0.1,2%,-42%[inhibitor]
COc1ccc(S(=O)(=O)NC2CC(=O)N(c3ccc(C)c(C)c3)C2)cc1 (centres undefined),-4,.,.,-0.2,-7%,8%[15.4 µM]
CCc1ccc(NC(=O)C2CCN(c3nc(-c4ccc(OC)cc4)no3)CC2)cc1,16,0.0%,.,0.4,.,.
COc1cccc(CNC(=O)CCNS(=O)(=O)c2cccs2)c1,27,-1.0%,0.8,0.4,7%,-11%
COC(=O)c1ccccc1NC(=O)CN(c1ccc(C)cc1)S(C)(=O)=O,9,-9.9%,4.0,0.7,3%,7%
N#Cc1cnn(-c2cc(Cl)ccc2Cl)c1N,-17,-3.3%,.,0.1,.,4%
CCCN(CC(=O)Nc1ccccc1C)C(=O)c1ccc(N2CCCC(C)C2)c([N+](=O)[O-])c1 (centres undefined),16,.,.,0.6,-22%,30%[15.4 µM]
COc1ccccc1NC(=O)c1ccc(-c2ccc(Br)cc2)o1,31,250%,2.6,1.3,-23%,-10%
NC(=O)c1nn2c(C(F)(F)F)cc(-c3ccc(Br)cc3)nc2c1Cl,-5,-1.1%,.,1.5,.,.
CCOC(=O)c1cc(C(=O)Nc2ccccc2F)nn1C,0,-1.1%,2.9,-0.1,-4%,11%
NS(=O)(=O)c1ccc(Sc2ccc3ccccc3c2)nc1,-11,.,-11,0.6,-4%,22%[15.4 µM]
CC(C)C(=O)Nc1ccccc1-c1nc2ccccc2[nH]c1=O,13,-15%,-2.1,-0.4,4%,-13%
Cc1nn(C(C)C(=O)NCc2cccs2)c(C)c1[N+](=O)[O-] (centres undefined),20,2.8%,-5.2,0.3,9%,-11%
COc1ccc(NC(=O)CCC(=O)OC(C(=O)c2ccccc2)c2ccccc2)cc1 (centres undefined),-13,-0.3%,1.6,-0.6,-26%,0%
C=CCn1c(SCC(=O)N2CCCC2)nc2c([nH]c3ccccc32)c1=O,-21,-9.4%,0.9,0.7,16%,-8%
COCCn1nnnc1CN1CCN(c2cccc(C(F)(F)F)c2)CC1,-6,-0.9%,-0.7,-0.8,8%,-1%
O=C(NC(c1ccc(Cl)cc1)c1c(O)ccc2ccccc12)c1ccccc1 (centres undefined),-2,-5.9%,0.7,-0.7,?,9%
COC(=O)c1ccccc1OCCN1CCCCCC1,-3,.,1.7,-0.8,11%,20%[15.4 µM]
CC(C)C[C@H](NC(=O)c1nc[nH]c1C(=O)NCc1ccccc1)C(=O)OC(C)(C)C,-2,1.7%,-0.5,2.0,-12%,-105%[inhibitor]
CCS(=O)(=O)NCC(c1cccnc1)N1CCN(c2ccc(F)cc2)CC1 (centres undefined),-1,-1.1%,3.2,-1.0,-4%,-48%[inhibitor]
c1ccc(-c2nc(N3CCOCC3)sc2-c2ccccc2)cc1,-1,.,-3.0,2.7,-21%,-1%
CN1C(=O)SC(Nc2cccc3ccccc23)C1=O (centres undefined),10,60%,0.4,0.4,3%,41%
CCOC(=O)c1cccc(NS(=O)(=O)c2ccc3[nH]c4c(c3c2)CCCC4)c1,11,-11%,.,4.1,.,.
C=CCS/C(=N\n1cnc2ccccc2c1=O)N1CCCCC1,-2,1.3%,-2.8,-0.3,0%,-35%
CC(=O)Nc1nc(CC(=O)c2ccccc2)cs1,-3,0.6%,1.4,-0.7,1%,-6%
COc1cc(/C=C(\C#N)C(=O)NC2CCCCC2C)ccc1OS(=O)(=O)c1ccc(C)cc1 (centres undefined),7,-29%,-1.4,0.3,-5%,-30%
C/C(=N\NC(=O)c1cc(C)nc2ccccc12)c1ccncc1,-2,-3.6%,.,1.4,-4%,-39%[inhibitor]
COC(=O)CC1SC(=O)NC1=Nc1cccc(C)c1 (centres undefined),43,-1.5%,-1.1,-0.9,4%,-29%
Cc1nc2ccc(S(=O)(=O)NCC(=O)N3CCc4ccccc43)cc2s1,6,-0.6%,5.5,2.1,0%,-6%
Cc1cc(C(=O)CSc2nnc(-c3cccs3)n2Cc2ccccc2)c(C)n1C,-6,5.2%,4.1,1.2,-20%,-16%
C=CCn1cc(C(=O)OC)c(=O)c2cc(S(=O)(=O)N3CCCCCC3)ccc21,-1,0.0%,-0.4,-0.2,-24%,-10%
COc1ccc(-c2cc3ccc(O)c(CN4CCN(CCO)CC4)c3oc2=O)cc1OC,-14,4.0%,.,12,.,.
O=C(CC(=O)Nc1nc(C23CC4CC(CC(C4)C2)C3)cs1)NCCO,4,.,-0.5,1.0,-1%,3%
CC(C)CCn1nnnc1C(c1ccc(F)cc1)N1CCN(C(=O)c2ccco2)CC1 (centres undefined),24,1.3%,-5.4,-1.0,-13%,0%
CN(C)CCNC(=S)NC1CCCCC1,-16,-2.0%,0.6,0.5,7%,?
COc1ccc(NC(=O)c2c(C)oc3ccc(O)c(CN4CCN(C)CC4)c23)cc1Cl,7,-0.6%,.,0.1,.,.
CC(=O)c1sc(NC(=O)CS(=O)(=O)c2ccc(F)cc2)nc1C,-13,0.2%,.,0.5,-15%,7%[15.4 µM]
Cc1ccc([N+](=O)[O-])cc1S(=O)(=O)N1CCC(C)CC1,13,.,0.7,-1.1,-1%,16%[15.4 µM]

# Screens from PubChem BioAssay.
